# Screening results (PubChem)
# KCNQ2 block – KCNQ2 channel blockers in CHO-K1 cells – cell-based, FluxOR thallium flux, B-score, primary screen (AID 2156); O88943; 1.1% of 310,000 active; 20 min; stronger effect = lower value; only compounds with negative scores are shown here; some inactives read as strong as hits; B-score at 10 µM;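 active means fluorescence ratio B-score at most minus 3 library SDs, with starting brightness B-score within 2 library SDs, cut at about -5.5 in these data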
# Target sequence (O88943 whole entry, looked up): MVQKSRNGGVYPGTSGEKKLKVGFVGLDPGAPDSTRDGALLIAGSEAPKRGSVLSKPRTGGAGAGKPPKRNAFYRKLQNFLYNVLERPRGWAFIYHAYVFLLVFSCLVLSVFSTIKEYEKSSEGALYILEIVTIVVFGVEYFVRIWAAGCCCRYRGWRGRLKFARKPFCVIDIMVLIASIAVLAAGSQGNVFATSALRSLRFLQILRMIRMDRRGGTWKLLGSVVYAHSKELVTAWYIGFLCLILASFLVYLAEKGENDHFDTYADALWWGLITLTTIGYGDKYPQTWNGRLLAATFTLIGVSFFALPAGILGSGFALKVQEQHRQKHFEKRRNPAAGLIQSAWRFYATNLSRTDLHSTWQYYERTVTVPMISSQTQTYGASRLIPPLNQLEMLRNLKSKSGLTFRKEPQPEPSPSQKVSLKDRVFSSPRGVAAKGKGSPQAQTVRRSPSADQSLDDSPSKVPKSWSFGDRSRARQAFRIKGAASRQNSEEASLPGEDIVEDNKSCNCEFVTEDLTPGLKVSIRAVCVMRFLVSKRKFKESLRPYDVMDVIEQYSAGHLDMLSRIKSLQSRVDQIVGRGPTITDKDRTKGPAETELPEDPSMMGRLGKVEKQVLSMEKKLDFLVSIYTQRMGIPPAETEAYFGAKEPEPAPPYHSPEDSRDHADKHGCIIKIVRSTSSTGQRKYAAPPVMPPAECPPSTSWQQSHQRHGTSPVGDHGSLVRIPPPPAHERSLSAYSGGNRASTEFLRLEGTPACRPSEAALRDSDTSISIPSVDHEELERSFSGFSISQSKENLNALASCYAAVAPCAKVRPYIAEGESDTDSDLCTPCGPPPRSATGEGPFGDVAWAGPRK
# KCNQ2 block baseline – recorded beside KCNQ2 block, whose call it bears; B-score; measured here: initial fluorescence intensity artifact check;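 brightness before thallium and not channel activity; 0 = typical well and far values either way flag optical interference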
# Numbers without * were called inactive; i = inactive. A portion of the library; rates above refer to the full screens.
SMILES,KCNQ2 block,KCNQ2 block baseline
CCCNc1nc(N2CCOCC2)nc(N2CCOCC2)n1,i,-2.6
O=C(CSc1nc2c(cnn2-c2ccc(F)cc2)c(=O)[nH]1)N1CCCCC1,i,-0.1
Cc1ccc(C(=O)Nc2ccccc2C(=O)NCc2ccccc2)cc1,i,0.57
COC(=O)CNC(=O)C1CC(=O)N(CCc2ccc(F)cc2)C1 (stereo not drawn),i,0.85
COc1ccc(CC(=O)O/N=C(\N)c2ccccc2)cc1OC,i,0.88
Cc1cccc(N2CCN(C(=O)c3ccc(Cl)c(NC4=NC5CS(=O)(=O)CC5S4)c3)CC2C)c1 (stereo not drawn),i,-0.71
CSCC[C@H](NC(=O)N1CCn2c1nc1ccccc12)C(=O)N[C@H](Cc1ccccc1)C(=O)O,i,-2.6
N#Cc1cn(Cc2ccccc2)c2ccccc12,i,-1.2
Cc1ccc2c(CC(=O)NCC3COc4ccccc4O3)coc2c1 (stereo not drawn),i,0.05
COCC(=O)Nc1nc2n(n1)C(c1ccccc1Cl)CC(c1ccc(OC)cc1)N2 (stereo not drawn),i,0.01
CCOC(=O)c1c(C)n(S(=O)(=O)c2ccc(C)cc2)c2ccc(O)c(C(=O)O)c12,i,-1.2
Cc1ccc2c(c1)c1ncn(Cc3ccc(F)cc3)c(=O)c1n2C,i,1.7
CCN(CC(=O)Nc1ccc2c(c1)OCCO2)C(=O)/C=C/c1ccc(OC)cc1OC,i,-0.22
O=C(CSc1nc2ccccc2o1)Nc1ccccc1N1CCCCCC1,i,-1.7
COc1ccc(NS(=O)(=O)c2c(F)cc(F)c(Cl)c2F)cc1S(=O)(=O)N1CCCCC1,i,8.1
O=C(CSc1nnc(-c2ccc(F)cc2)c2ccccc12)Nc1c(F)cccc1F,i,1.4
COc1cccc(NC(=O)CSc2ccc3nnc(CCNC(=O)c4ccccc4)n3n2)c1,i,0.34
O=C(Nc1nnc(C2CC2)s1)C1Cc2ccccc2CN1S(=O)(=O)c1ccccc1F (stereo not drawn),i,0.07
CCOc1ccc(NC(=O)CSc2ccc3nnc(-c4ccccn4)n3n2)cc1,i,2.6
CC1(C)CC(=O)c2cc(OCC(=O)O)ccc2O1,i,0.69
Oc1cccc(/C=N/N2CCCCC2)c1O,i,0.12
N#C[C@H]1C2OC2c2ccccc2N1C(=O)c1ccccc1 (stereo partly drawn),i,0.73
CNC(=O)Cc1csc2ccc(Cl)cc12,i,0.28
O=C(/C=C/c1ccccc1)n1cnnc1SC/C=C/c1ccccc1,i,0.74
CN1CCN(C(=O)/C(=C/c2ccco2)NC(=O)c2ccccc2)CC1,i,1.1
# (more compounds)
SMILES,KCNQ2 block,KCNQ2 block baseline
CCOC(=O)c1c(NC(=O)C(=O)N/N=C/c2ccccc2OC)sc2c1CCCCC2,i,-0.62
COC(=O)c1c(-c2ccccc2)csc1NC1=NS(=O)(=O)c2ccccc21,i,0.84
CCOc1ccc(CCNC(=O)COc2cc(=O)n(C)c3ccccc23)cc1OCC,i,-1.8
CCc1nc(C(N)=O)c2[nH]c(=O)n(-c3ccccc3F)c2n1,i,0.68
COc1ccccc1N1CCN(C2CCCN(C(=O)CC(F)(F)F)C2)CC1 (stereo not drawn),i,2.9
Cc1cccc(Cl)c1NC(=O)N1CCN(c2ccnc3cc(Cl)ccc23)CC1,i,-0.37
COc1ccc(C(=O)Nc2nnc(-c3ccccc3)o2)cc1OC,i,1.4
CN(C)c1ccc(C2N3CC4(C)CN2CC(C)(C3)C4O)cc1 (stereo not drawn),i,0.14
CCCCC(CC)C(=O)Nc1cc(C(=O)NCCC)ccc1N1CCC2(CC1)CC(c1ccccc1)=NO2 (stereo not drawn),i,0.01
Cc1ccc(N2CCN(c3ccc(C)cc3)C2c2cccnc2)cc1,i,1.3
O=C(NC(NC(=S)Nc1ccccc1O)C(Cl)(Cl)Cl)c1ccco1 (stereo not drawn),i,-0.73
Cc1c(C)c2c(OCC(=O)N[C@@H](C)C(=O)O)cc3c(c2oc1=O)CCC(C)(C)O3,i,0.88
COc1ccc(C2NC(c3ccc(OC)c(OC)c3OC)C(C)C(=O)C2C)c(OC)c1OC (stereo not drawn),i,1.7
O=C(/C=C/c1cccc([N+](=O)[O-])c1)NCCSCc1ccc(Cl)cc1,i,-2.5
CCOCCCn1c(=S)[nH]c2cc(C(=O)N3CCN(C)CC3)ccc2c1=O,i,1.3
CCn1c(CSc2nc(C)cs2)nc2cc(S(=O)(=O)N(C)C)ccc21,i,-0.24
CCC(C)NC(=O)C1CCCN(S(=O)(=O)c2ccc3c(c2)CC(C)N3C(=O)C2CC2)C1 (stereo not drawn),i,-0.41
CCOC(=O)c1ccc(NC(C)=O)c([N+](=O)[O-])c1,i,-0.74
CCOC(=O)c1sc2nc(CC(=O)OC)nc(N(C)CCc3ccccn3)c2c1C,i,-0.08
CCOc1cc(/C=N/NC(=O)c2cccc(S(=O)(=O)N3CCOCC3)c2)ccc1OCC(=O)N(C)C,i,1.9
Cc1ccc(C2C(C(=O)c3cccs3)=C(O)C(=O)N2c2nnc(C)s2)cc1 (stereo not drawn),i,6.9
COCCN(CCOC)C(=O)CCn1c(=O)oc2ccccc21,i,0.03
COc1ccc(N2CC(C(=O)Nc3nnc(Cc4ccccc4)s3)CC2=O)cc1 (stereo not drawn),i,0.06
CC1=C(C)CC(C(=O)Nc2nc(C)cs2)C(C(=O)O)C1 (stereo not drawn),i,0.18
CC(C)NC(=O)N1CC(c2ccccc2)C(c2ccc(Cl)cc2)=N1 (stereo not drawn),i,2.8
# Continuation.
SMILES,KCNQ2 block,KCNQ2 block baseline
Cc1ccc(-n2c(-c3cc(-c4ccco4)[nH]n3)n[nH]c2=S)c(Br)c1,i,-0.15
CC1(c2nnc(-c3ccc(F)cc3)o2)CC(c2c(Cl)cccc2Cl)=NO1 (stereo not drawn),i,-0.8
O=C(CCNS(=O)(=O)c1ccc(Cl)cc1)NCc1cccs1,i,-0.56
O=C(Cc1csc(N2CCOCC2)n1)N/N=C/c1ccc(O)c(O)c1O,i,-1
CCCCN(C(=O)c1ccc([N+](=O)[O-])s1)c1c(N)n(CC(C)C)c(=O)[nH]c1=O,i,-0.36
Cc1nc(N2CCN(c3ccccc3O)CC2)c2c(-c3ccccc3)csc2n1,i,-0.27
CC(C)CCNC(=O)NC(=O)CSc1ncccn1,i,-1.1
O=C(Cc1c(O)c2ccccc2oc1=O)c1ccc(C(F)(F)F)cc1,i,1.7
CC1CCN(S(=O)(=O)c2ccc3c(c2)N(CC(=O)NCCCOC(C)C)C(=O)CS3)CC1,i,-2.6
S=C1NCCOCCOCCOCCNC(=S)NCCOCCOCCOCCN1,i,1.2
O=C(NCc1cn2ccsc2n1)c1c(F)cccc1Cl,i,1.1
COC(=O)c1ccc(CSc2nnnn2Cc2ccccc2)cc1,i,0.4
O=C(/C=C/c1ccc(F)cc1)NCCc1ccc2c(c1)OCCO2,i,1.5
COc1ccc(C2CC(c3ccc(Br)cc3)Nc3nc(N)nn32)cc1 (stereo not drawn),i,-0.9
COc1ccc(-c2cc(C(=O)NCc3ccco3)c3ccccc3n2)c(OC)c1,i,0.08
CCC(=O)N1c2ccc(S(=O)(=O)NCc3ccccc3)cc2CC1C (stereo not drawn),i,-0.49
COc1ccc(C(CNC(=O)CCOc2ccccc2)N(C)C)cc1 (stereo not drawn),i,0.22
O=C(CNc1ccccc1F)N/N=C/C1CC=CCC1 (stereo not drawn),i,1.1
O=S(=O)(c1ccccc1Br)N1CCC(O)(c2cccnc2)CC1,i,0.77
CC(C)CN(C(=O)c1cccc(S(=O)(=O)N2CCN(C)CC2)c1)C1CCS(=O)(=O)C1 (stereo not drawn),i,2.3
COc1ccc(S(=O)(=O)Nc2ccc3oc4ncccc4c(=O)c3c2)cc1OC,i,0.2
CC(C(=O)NCC1(c2ccccc2)CCOCC1)N1CCOCC1 (stereo not drawn),i,-0.02
CCOc1ccc(OCC)c2sc(C)nc12,i,1.6
CCOc1ccccc1N(C)C(=O)c1sc2ncn(CC(=O)N3CCCCC3C)c(=O)c2c1C (stereo not drawn),i,-0.1
CCOC(=O)N1CCN(C(=O)c2ccc3oc(CCCc4ccccc4)nc3c2)CC1,i,0.81

# A portion from further up:
SMILES,KCNQ2 block,KCNQ2 block baseline
COc1ccc(-c2cc(C(=O)NCc3ccco3)c3ccccc3n2)c(OC)c1,i,0.08
CCC(=O)N1c2ccc(S(=O)(=O)NCc3ccccc3)cc2CC1C (stereo not drawn),i,-0.49
COc1ccc(C(CNC(=O)CCOc2ccccc2)N(C)C)cc1 (stereo not drawn),i,0.22
O=C(CNc1ccccc1F)N/N=C/C1CC=CCC1 (stereo not drawn),i,1.1

# New compounds follow:
SMILES,KCNQ2 block,KCNQ2 block baseline
Cc1noc(C)c1CSc1nc2ccccc2c(=O)n1-c1ccc(F)cc1F,-7.3*,-3*
CC(=O)Nc1ccc(S(=O)(=O)N2CCC(C(=O)NCCc3c[nH]c4ccccc34)CC2)cc1,i,-0.01
CC(C)(C)Nc1ncnc2sc(-c3ccccc3)cc12,i,-0.65
CCN(CC)C1CC(=O)N(c2ccc(Br)cc2)C1=O (stereo not drawn),i,0.68
Cc1cc(NC(=O)CSc2nnc(C3CC3)n2N)c([N+](=O)[O-])cc1C,i,0.03
COc1ccc(C23CC4CC(CC(C4)C2)C3)cc1C(=O)NCCN(C)C,i,-0.01
Cc1cc(C(=O)NCc2ccc(C(=O)O)o2)c(C)o1,i,1.7
CCOC(=O)CN(C(=O)COc1nc(C)cc(C)c1C#N)c1ccc(Cl)cc1,i,0.01
COc1cc(C=O)ccc1OCc1cccc(Br)c1,i,-0.58
CCCCn1c(N)c(N(CC(C)C)C(=O)c2ccc(N3C(=O)c4ccccc4C3=O)cc2)c(=O)[nH]c1=O,i,1
O=C(NC1CCCC1)C(c1ccc(F)cc1)N(Cc1ccccc1)C(=O)c1csnn1 (stereo not drawn),i,0.58
Cc1c(O)ccc2c(CN3CCN(Cc4ccccc4)CC3)cc(=O)oc12,i,2.9
COc1cccc(CNC(=O)c2cc3c(C)nc4ccccc4c3o2)c1,i,-0.02
CCCCCNC(=O)Cn1c(=O)c2c(ncn2CC(C)C)n(Cc2ccccc2)c1=O,i,0.08
CC(C)=CCc1c(O)c(CC=C(C)C)c2c(c1O)-c1cc(O)c(O)cc1CC2,i,-1.8
CCOC(=O)c1c(C)[nH]c(C)c1S(=O)(=O)Nc1ccc(CN2CCCCC2)cc1,i,-0.33
Nc1c2c(nc3ccccc13)N(c1ccccc1)CC2,i,-0.41
CC(=O)Oc1ccc(/C=c2\sc3ncnn3c2=O)cc1,i,0.61
CN(C)S(=O)(=O)c1ccc(Cl)c(C(=O)Nc2ccc(S(=O)(=O)N3CCOCC3)cc2)c1,i,-1.9
COc1cc(OC)c(S(=O)(=O)Nc2ccc(C(=O)O)cc2)cc1S(=O)(=O)Nc1ccc(C(=O)O)cc1,i,1.5
O=C(c1ccc([N+](=O)[O-])cc1[N+](=O)[O-])N1CCCC1,i,0.46
Cc1cccc2cc(CN(Cc3nnnn3Cc3ccccc3)C3CCCC3)c(=O)[nH]c12,i,1.2
O=C(COc1ccc(F)cc1Br)N1CCN(c2ncccn2)CC1,i,-0.85
CCC(=O)Nc1ccc(C(=O)CSc2nc3ccccc3[nH]2)cc1,i,-1.7
CCCNC(=O)CN(c1ccc(F)cc1)S(=O)(=O)c1ccc2c(c1)OCCO2,i,0.12

# Reprinted at random: 6 entries already listed, in no set order.
SMILES,KCNQ2 block,KCNQ2 block baseline
CCN(CC)C1CC(=O)N(c2ccc(Br)cc2)C1=O (stereo not drawn),i,0.68
Cc1noc(C)c1CSc1nc2ccccc2c(=O)n1-c1ccc(F)cc1F,-7.3*,-3*
O=C(COc1ccc(F)cc1Br)N1CCN(c2ncccn2)CC1,i,-0.85
O=C(NC1CCCC1)C(c1ccc(F)cc1)N(Cc1ccccc1)C(=O)c1csnn1 (stereo not drawn),i,0.58
Cc1cc(C(=O)NCc2ccc(C(=O)O)o2)c(C)o1,i,1.7
COc1ccc(C23CC4CC(CC(C4)C2)C3)cc1C(=O)NCCN(C)C,i,-0.01

# (list continues)
SMILES,KCNQ2 block,KCNQ2 block baseline
Cc1ccc(Nc2cnn(C34CC5CC(CC(CC(=O)O)(C5)C3)C4)c(=O)c2Cl)cc1C,i,-0.1
Cc1cccc(N=C2NC(=O)/C(=C/C=C/c3ccco3)S2)c1,i,-0.06
COC(=O)c1ccc(COc2ccc(C=O)cc2OC)o1,i,-0.05
CC(=O)c1ccc(Nc2ccc(-c3ccccc3F)nn2)cc1,i,0.12
O=S(=O)([O-])CCC[N+]1(CC#Cc2ccccc2)CCCCC1,i,1
O=[N+]([O-])c1ccc(/C=C2\CCC(C3=CCCC3)=C2N2CCOCC2)cc1,i,0.02
CC(=O)N(C)c1ccc(NS(=O)(=O)c2cc(Cl)ccc2Cl)cc1,i,0.33
COc1ccc(OC)c(S(=O)(=O)N2CCN(c3ccc(F)cc3)CC2)c1,i,1.9
OC(CSc1ccccc1Cl)CN1CCN(c2ccccc2F)CC1 (stereo not drawn),i,0.66
CC(SCC(=O)Nc1ccc(S(=O)(=O)N2CCCCC2)cc1)C(=O)O (stereo not drawn),i,-0.04
COc1cc(C)c(CNc2cc(C)cc(C)c2)cc1C,i,0.43
CC(C)CN(C(=O)CN(C)C(=O)Cc1ccc(Cl)cc1)c1c(N)n(CC(C)C)c(=O)[nH]c1=O,i,2
COc1ccc(/C=N/N2CCN(C3c4ccccc4-c4ccccc43)CC2)cc1OC,i,-0.49
CCOc1ccc2nc(N3CCCC(C(=O)NCCCN4CCOCC4)C3)sc2c1 (stereo not drawn),i,-1.2
CCN(CC)C(=O)CN(C#N)c1nc(NC(C)C)nc(NC(C)C)n1,i,0.4
Cc1ccc(S(=O)(=O)NCC(=O)OCC(=O)N2N=C(c3ccc(Cl)cc3)CC2c2ccco2)cc1C (stereo not drawn),i,-0.27
Cc1cc(O)c(C(=O)/C=C/c2ccc(Cl)cc2)c(=O)o1,i,0.9

# Full records, quoted from the list. Order of screens: KCNQ2 block	KCNQ2 block baseline
# N#Cc1cn(Cc2ccccc2)c2ccccc12 is entered as i	-1.2
# O=C(/C=C/c1ccccc1)n1cnnc1SC/C=C/c1ccccc1 is entered as i	0.74
